MT1-MMP act inh = MT1-MMP (human) activation inhibition | HT1080 RFP-PRO-GFP cells, GFP/RFP ratio fluorescence, overnight; percent of plate control window, DMSO zero | GFP/RFP ratio change, % at 20 µM | actives 0.061% (n = 360,000) | AID 651647;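 active means GFP/RFP ratio change of at least 30% with cell ATP level not reduced by more than half and red fluorescence within 50% of control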; further: strong numbers were not always called active
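Assay system: HT1080 RFP-PRO-GFP cells. Benchmarks: DMSO vehicle wells and RFP-L50D-GFP reporter cell wells. Times: overnight cell settling, then overnight compound exposure, 37 °C, 5% CO2. Compound: 20 µM single dose, 1% DMSO. Read-out basis: GFP/RFP fluorescence ratio.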
HIV Env fusion = HIV envelope-mediated fusion inhibition; inhibition, % at 12.3 µM; HeLa-JRFL Env/CEM21 cell fusion, luciferase; actives 1.1% (n = 360,000);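 active means mean replicate inhibition score of at least 50 and every replicate individually at or above 50; inconclusive means only one of the two criteria met; inactive means mean below 50 and not all replicates reaching 50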;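 further: 0% = plate neutral controls and 100% = maraviroc near 300 nM; one replicate is shown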
CSC inhib = blocks cancer stem cells; cancer stem cell-like cells viability, luminescence; inhibition, % at 7.5 µM; actives 1.1% (n = 300,000);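 active means mean at 75% or more and at least half the replicates too; inconclusive means mean and replicates disagree; tested in HMLE shEcad cells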;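 further: 0% = median of negative and 100% = median of positive control wells; the first replicate is given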
Rce1 inhib = blocks yeast Ras-converting enzyme. yeast membranes, quenched prenylated peptide cleavage fluorescence. calls only. actives 0.27% (n = 290,000);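 active means fall in fluorescence gain of 50% or more versus controls, with final raw signal at or below 3038400; inconclusive means same 50% fall but final raw signal above 3038400; inactive means fall in fluorescence gain under 50%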;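 further: plate controls were neutral control wells for no effect and wells lacking membranes for full effect; tested at 10 µM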
Target sequence (Q03530 whole entry, looked up): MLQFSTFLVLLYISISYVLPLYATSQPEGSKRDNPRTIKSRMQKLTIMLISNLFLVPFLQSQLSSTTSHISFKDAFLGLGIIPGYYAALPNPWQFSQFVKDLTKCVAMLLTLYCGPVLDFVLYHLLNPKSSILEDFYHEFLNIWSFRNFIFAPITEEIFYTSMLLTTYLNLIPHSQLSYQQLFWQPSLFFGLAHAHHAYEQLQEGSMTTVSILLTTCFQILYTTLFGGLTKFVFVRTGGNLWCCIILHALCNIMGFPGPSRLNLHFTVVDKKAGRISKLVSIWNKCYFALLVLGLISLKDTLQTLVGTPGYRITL
UUG fidelity = yeast start codon fidelity modulation | actives 0.13% (n = 350,000) | AID 602363 | S. cerevisiae UUG-firefly luciferase reporter, luminescence/redox ratio | activity score, % at 18.7 µM;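 active means replicate mean at a twofold rise or more, about +100% in these data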;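 further: firefly luciferase made from a UUG start codon reports start codon fidelity; reporter light over untreated wells divided by growth signal over untreated wells; some hits fall short of that in this replicate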
PABP FP inh = PABP-poly(A) binding inhibition. inhibition, % at 35 µM. actives 1% (n = 290,000). PABP-poly(A) RNA binding, fluorescence polarization;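 active means 50% or more with normal probe brightness, or confirmed in later tests; inconclusive means above 50% with abnormal brightness, or retests that disagree; inactive means below 50% or failed in later tests; about a fifth of its hits are not listed in these tables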;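 further: calls also rest on retests at 20 µM and on dose response follow-up; controls were probe without protein and protein plus probe with vehicle; some compounds called inactive have numbers as strong as hits; many hits fall short of the cut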
eIF4H FP inh = inhibitors of RNA binding by human eIF4H; AID 2012; Q15056; inhibition, % at 35 µM; actives 0.94% (n = 290,000); eIF4H fluorescence polarization binding assay;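 active means 50% or more with normal probe brightness, or confirmed in later tests; inconclusive means above 50% with abnormal brightness, or retests that disagree; inactive means below 50% or failed in later tests; about a fifth of its hits are not listed in these tables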;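 further: calls also rest on retests at 20 µM and on dose response follow-up; 0% = protein and probe with vehicle and 100% = probe without protein; strong numbers were not always called active; many hits fall short of the cut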
eIF4H FP inh retest = recorded beside eIF4H FP inh, whose call it bears; inhibition, %; compound at 20 µM; confirmation average;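 mean of two retest wells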
PABP FP inh retest = recorded beside PABP FP inh, whose call it bears; inhibition, %; compound at 20 µM; confirmation repeats;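 mean of two retest wells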
MT1-MMP act inh RFP = further read-out of MT1-MMP act inh, marked with its call; RFP signal change, %; measured here: RFP expression control read;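 0 = vehicle wells; hits needed this value within 50% of zero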
Active calls of the source: *; i = inactive; u = inconclusive; x = not tested or not shown. These rows are one share of the data (hit frequency here may not be typical).

SMILES	MT1-MMP act inh	MT1-MMP act inh RFP	HIV Env fusion	CSC inhib	Rce1 inhib	UUG fidelity	PABP FP inh	eIF4H FP inh	others
CC(=O)NCC(=O)NC1CC(C)(C)Cc2c1cnn2-c1ccccc1 (stereo not drawn)	0	-2	2	-3	i	-10	9	0
COc1cccc(CC2(CO)CCCN(CC3=Cc4cc(OC)ccc4OC3)C2)c1 (stereo not drawn)	0	-1	2	8	i	x	-7	2
Cc1cc(C)cc(Nc2ncc3c(n2)CC(c2ccco2)CC3=O)c1 (stereo not drawn)	-4	-5	-23	11	i	-31	-7	-4
Cc1nnc(SCC(=O)Nc2ccccc2NC(=O)CSc2nnc(C)s2)s1	1	3	x	-4	i	-23	-5	3
CN(C)CCOc1cccc(Br)c1	5	3	9	2	i	x	1	-2
Cc1ccc(C2(CCNC(C)c3cccs3)CCOC(C(C)C)C2)cc1 (stereo not drawn)	-5	-3	15	x	i	14	-3	10
Cc1cc(C=O)c2c(c1)C=CC1(Oc3ccccc3C(=O)N1C)O2 (stereo not drawn)	x	x	x	7	i	x	u	u
Cc1cccc(NC(=O)CCN2CCCC(C)C2)c1 (stereo not drawn)	1	3	-6	-34	i	-11	3	-5
COc1ccc(Cl)cc1NS(=O)(=O)c1cccc2cccnc12	5	-2	15	-6	i	0	2	-14
COc1ccc(-c2cc(=O)oc3cc(OCC(=O)NCCCn4ccnc4)ccc23)cc1	4	1	x	39	i	-18	-6	-13
C=CCn1c(=O)[nH]c2cc(C(=O)N3CC=C(c4ccccc4)CC3)ccc2c1=O	1	0	-53	1	i	x	-13	11
COCCn1c(SCC(=O)c2cccc(OC)c2)nnc1-c1ccco1	1	5	x	3	i	-18	-4	-2
Cc1ccc(C(=O)C(OC(=O)c2cnccn2)c2ccccc2)cc1 (stereo not drawn)	1	3	21	-9	i	-4	13	-10
COc1ccccc1Nc1nc(-c2cccs2)cs1	0	4	x	4	i	-10	47	44
CC(c1ccccc1)N(C)C(=O)CN1CCN(S(=O)(=O)c2ccc3c(c2)OCCCO3)CC1 (stereo not drawn)	6	-14	-7	x	x	-3	x	x
CCOC(=O)c1sc(=S)n(-c2cc(OC)ccc2OC)c1N	3	6	x	-13	i	x	4	-7
COc1ccc(C)cc1NC(=O)C(Sc1nnc(-c2ccncc2)n1-c1ccc(Cl)cc1)c1ccccc1 (stereo not drawn)	-16	-12	11	18	x	x	-5	-7
C=CCNC(=O)C1CC(=O)N(c2ccc(OCC(=O)Nc3cccc(OC)c3)cc2)C1 (stereo not drawn)	2	4	x	-3	i	-2	2	1
CCc1ccc(NCCC(=O)c2ccc(Cl)cc2)cc1	7	4	-44	x	i	-23	-2	-7
CCOC(=O)c1ccc(N2C(=O)CC(N3CCC(C(N)=O)(N4CCCCC4)CC3)C2=O)cc1 (stereo not drawn)	6	1	x	2	x	-17	-3	-8
O=C(Cc1cccs1)NCCCc1ccccc1	-1	0	4	-13	i	-8	0	4
O=C(CCCc1ccccc1)Nc1ccnn1C1CCN(Cc2ccc(CO)o2)CC1	2	0	-8	3	i	-9	3	4
O=C1NC(=O)C2(CCCCCCCCCCC2)N1	1	-1	8	-6	i	0	-6	-9
COC(=O)CC(NC(=O)C1CC1)c1ccc2c(c1)OCO2 (stereo not drawn)	0	6	6	-3	x	x	7	4
O=S(=O)(NCCNS(=O)(=O)c1ccc(F)cc1)c1ccc(F)cc1	2	7	-66	-9	i	-4	-8	-4

Next part
SMILES	MT1-MMP act inh	MT1-MMP act inh RFP	HIV Env fusion	CSC inhib	Rce1 inhib	UUG fidelity	PABP FP inh	eIF4H FP inh	others
O=C(Nc1ccc(S(=O)(=O)N2CCOCC2)cc1)c1ccc(Cl)s1	11	-7	x	0	i	-13	0	-11
COc1ccc(NC(=O)/C(C#N)=C/c2ccc(OCCN3CCOCC3)c(OC)c2)c(OC)c1	-3	-1	x	-10	i	-9	7	8
COc1ccc(OCC(=O)Nc2nc3ccc(NC(C)=O)cc3s2)cc1	1	0	-25	-17	i	x	1	-16
O=C1CC/C=C\C[C@@H](CC(=O)N(CCO)Cc2ccccc2)C(=O)NC[C@@H](c2ccccc2)O1	8	6	20	-20	x	-13	x	x
c1ccc2c(c1)OCC(c1nn3cnnc3s1)O2 (stereo not drawn)	0	1	-161	0	i	-13	-2	-1
CCc1c(C)sc(NC(=O)C2CCCCC2C(=O)O)c1C(N)=O (stereo not drawn)	-2	11	-66	-10	i	2	40	27
COc1ccc2sc(N(CCN(C)C)C(=O)/C=C/c3cccs3)nc2c1	-6	-10	21	25	i	x	-4	6
CCN(CCCNC(=O)CNC(=O)Cn1cnc2ccccc2c1=O)c1ccccc1	2	0	x	-21	x	-9	-9	-7
O=C(COC(=O)c1cccnc1Nc1ccccc1F)NCCN1C(=O)CSC1=O	14	8	x	4	i	x	-1	-5
O=C(O)CCn1ncc2ccccc2c1=O	-2	7	5	-1	i	7	10	6
CCN1C(=O)/C(=C2/Sc3ccc(OC)cc3N2C)SC1=Nc1cccc(O)c1	-3	-6	x	38	i	-19	-6	-14
CCS(=O)(=O)Nc1ccc(C(=O)c2ccccc2)cc1	0	-3	41	10	x	-10	4	-1
c1ccc(C(c2nnnn2Cc2cccs2)N2CCN(C3CCCC3)CC2)cc1 (stereo not drawn)	-1	-10	-89	15	i	-10	0	-3
CCOC(=O)C1CCCN(C(=O)c2ccccc2NC(=O)C2=C(C)OCCS2)C1 (stereo not drawn)	-2	-1	11	-18	i	-8	8	1
O=C(CN1CCCCC1)N1c2ccccc2Oc2ccccc21	3	2	x	-10	i	-10	12	4
O=C(Cc1ccccc1)N/N=C/c1ccc(OC(=O)/C=C\c2ccco2)cc1	-4	-3	-27	-17	i	1	5	106	eIF4H FP inh retest=-8;PABP FP inh retest=12
CN(C)c1ccc(NC(=O)COC(=O)c2ccc3c(c2)OCO3)cc1	1	0	12	-11	x	x	x	x
CCC(=O)Nc1nc2ccc3nc(C)sc3c2s1	8	7	-106	13	i	-12	3	8
CC(=O)Nc1ccc(NC(=O)Cc2ccc(S(=O)(=O)N3CCCCC3)cc2)cc1	3	5	-85	x	x	-13	x	x
Nc1ccc2nc(SCC(=O)c3ccccc3)sc2c1	-1	-4	-10	5	i	-19	-6	-7
O=C(c1ccc(=O)oc1)N1CCC(C(O)(c2ccccc2)c2ccccc2)CC1	-12	-2	1	-7	i	-7	-1	2
Nc1cc(=O)[nH]c(SCC(=O)Nc2cccc(S(=O)(=O)N3CCCCCC3)c2)n1	0	0	3	7	x	-17	x	x
CCC1Sc2ccc(S(=O)(=O)CCC(=O)Nc3c(Cl)cc(OC)cc3OC)cc2NC1=O (stereo not drawn)	2	2	-5	-19	i	9	x	x
CC(C)C1S/C(=N/N=C/c2ccco2)NC1=O (stereo not drawn)	7	4	-14	15	x	-2	-11	2
COc1nc(N(C)C)nc(N2CC(=O)N(CCNS(=O)(=O)c3ccc(C)cc3)C2=N)n1	4	3	x	27	i	20	4	2

(further entries)
SMILES	MT1-MMP act inh	MT1-MMP act inh RFP	HIV Env fusion	CSC inhib	Rce1 inhib	UUG fidelity	PABP FP inh	eIF4H FP inh	others
Cc1ccc(C(=O)N/N=C\c2ccc[nH]2)cn1	3	-4	-134	-9	i	-16	32	11
COC(CNc1nc(SC)nc2sc3c(c12)CCN(C)C3)OC	1	0	2	0	i	-3	16	16
CC1CCN(C(=O)C2CCN(S(=O)(=O)c3cc(Cl)ccc3Cl)CC2)CC1	4	-1	-1	-11	i	x	7	0
Cc1ccc(N2C(=O)CC(NNc3nc4ccccc4s3)C2=O)cc1C (stereo not drawn)	-3	9	-40	-7	i	x	-11	-5
CCn1c(SCC(=O)Nc2ccccc2F)nnc1-c1cnccn1	4	2	-13	-3	i	-5	9	-5
COc1ccc(CN(C)C(=O)c2ccc(OCC(=O)Nc3cccc(C(F)(F)F)c3)c(OC)c2)cc1	17	-26	4	x	x	0	x	x
COc1ccc(-c2cc3c(c4c2ccn4C)C2CCC3C2)cc1F (stereo not drawn)	7	1	28	x	x	-6	x	x
C=CCn1c2c(c(=O)[nH]c1=S)CN(C(C)c1ccccc1)CN2 (stereo not drawn)	2	4	5	-17	i	-21	6	-8
CCn1c(SCC(=O)Nc2ccc(OC)c(S(=O)(=O)N3CCCCC3)c2)nnc1C1CC1	-3	-3	4	x	x	-17	x	x
Cc1c(/C=N/NC(=O)c2ccc3c(c2)OCO3)cnn1C	-1	-10	x	3	i	-14	3	0
Cc1cc(-c2ccc(C)c(S(=O)(=O)N3CC(=O)Nc4ccccc43)c2)on1	-1	-1	2	-1	i	-17	-8	-10
CC(C)c1ccc(N2C(=O)C(Cl)=C(N3CCOCC3)C2=O)cc1	-3	0	0	-14	i	x	4	-2
O=C1c2ccccc2C(=O)N1c1ccc(S(=O)(=O)N2CCCCC2)cc1	-3	-2	14	-4	i	2	16	-7
CC(C)Oc1ccccc1/C=N/NC(=O)C1CCCC1	-5	-4	-17	-17	i	-12	4	8
COc1ccc(CN2CCC(Oc3ccc(C(=O)N4CCCC4)cc3)CC2)c(F)c1	4	0	x	-4	i	-13	0	-3
COc1ccc(-c2[nH]ncc2CN2CCCC(C(=O)c3cccc(OC)c3)C2)cc1 (stereo not drawn)	2	3	-7	2	i	-10	-5	-1
CC(=O)c1csc(COc2cc(Cl)cc(Cl)c2)n1	3	6	-40	-5	i	x	9	-2
O=C(COC(=O)c1ccc(Cl)s1)c1ccc[nH]1	1	-4	6	1	i	x	-6	3
Cc1cc(=O)oc2cc(NC(=O)Cc3ccccc3[N+](=O)[O-])ccc12	1	1	5	-7	x	0	-5	-1
Fc1ccccc1CN1CCN(c2ncccn2)CC1	1	4	-15	0	i	-7	32	15
COC(=O)Nc1cc(C(=O)c2ccc(Cl)cc2Cl)c[nH]1	2	10	12	-3	i	-17	8	31
COc1ccccc1NC(=O)c1ccc(NC(=O)COC(=O)C(C)C)cc1	-9	-2	-5	-5	i	x	8	4
COCC(=O)Nc1cccc2ccccc12	9	-1	-21	-1	i	x	-5	-3
Cn1c(CCN2CCCC2)nc2cc(NS(=O)(=O)c3ccc(F)cc3)ccc21	-4	-9	8	x	x	-20	x	x
Cc1ccc(NC(=O)N2CCC(C(=O)NCc3ccc(F)cc3)CC2)cc1	8	3	10	3	i	-7	-9	5

Later entries.
SMILES	MT1-MMP act inh	MT1-MMP act inh RFP	HIV Env fusion	CSC inhib	Rce1 inhib	UUG fidelity	PABP FP inh	eIF4H FP inh	others
CCCCCNC(=O)c1[nH]c(C(F)(F)F)nc1-c1ccccc1	0	1	-28	x	x	-1	x	x
COc1ccccc1-c1nnc(NC(=O)Cc2ccccc2)o1	2	3	0	-4	i	-13	0	-7
O=C(O)c1cccc(C(=O)Cc2ccccc2)c1	-4	1	x	1	i	x	0	1
Cc1ccccc1-n1c(SCC(=O)N2CCOCC2)nc(O)c(Cc2ccccc2)c1=O	-3	-4	4	-11	i	2	-2	-8
COc1ccc(-c2c(-c3ccc(OC)c(F)c3)c3ccccc3n2C)cc1	1	-2	11	49	x	-21	x	x
Cc1cccc(OCCC(=O)Nc2ccc(Cl)cc2F)c1	-1	-2	-2	-1	i	-3	12	10
